# High-throughput results from PubChem BioAssay.
# HCMV UL50-53 inh: inhibitors of HCMV UL50-UL53 nuclear egress complex interaction | inhibition, % (concentration not given with the values) | AID 1918969 | HTRF UL50-UL53 interaction, normalized percent inhibition | hit rate 0.15% among 190,000;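 active = both replicates at 50% or more, plus weaker picks with an unusually low signal ratio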;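 note: stock transfer was 100 nL into about 20 µL; 0% = negative control wells and 100% = wells with untagged competitor protein; inactives centre near -12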
# GIV-Gai inh: inhibitors of GIV GBA-motif binding to rat Galpha-i3; percent of control (FP), % (test concentration not listed); Galpha-i3/FITC-GIV peptide fluorescence polarization, 90 min; active compounds read low; scaled: aluminum fluoride 0%, vehicle 100%; hit rate 0.42% among 210,000; P08753; AID 1224905;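 active = replicate mean at 85% of control or lower, very high polarization wells dropped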;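 note: lower values mean more displacement of the GIV peptide from Galpha-i3; wells of about 15 µL received 100 nL stock; the first replicate is given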
# Target sequence (P08753 whole entry, looked up): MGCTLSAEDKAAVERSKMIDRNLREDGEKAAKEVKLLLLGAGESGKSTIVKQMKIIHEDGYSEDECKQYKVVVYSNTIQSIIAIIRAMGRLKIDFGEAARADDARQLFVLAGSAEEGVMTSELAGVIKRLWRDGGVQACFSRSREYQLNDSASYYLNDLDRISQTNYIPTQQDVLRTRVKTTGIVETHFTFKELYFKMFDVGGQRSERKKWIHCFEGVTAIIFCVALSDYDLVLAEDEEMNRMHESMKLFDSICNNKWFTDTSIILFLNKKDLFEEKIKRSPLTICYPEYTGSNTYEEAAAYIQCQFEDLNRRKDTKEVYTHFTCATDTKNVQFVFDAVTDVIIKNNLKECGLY
# Sa growth 42C: blocks Staphylococcus aureus growth; AID 720641; S. aureus RN4220 growth, OD600, 20 h, 42 °C; active compounds read low; hit rate 0.53% among 170,000; relative growth, % (concentration not given with the values);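 active = growth at 42 °C up to 50% and 20 or more points under that at 30 °C, or under 10% at both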;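 note: 300 nL library stock went into each well; scaled to the means of positive and negative controls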
# Sa growth 42C second temp: also measured in Sa growth 42C; calls as there; relative growth, %; measured here: growth at 30 °C;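 optical density after 20 h as mean of two plates; 100% = untreated growth and lower means inhibition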
# The depositor's hits bear a star; x = not tested or not shown; & = joins results of further samples. Rows were taken by chance; 0.82% or so of the library scored in one or more.
SMILES,HCMV UL50-53 inh,GIV-Gai inh,Sa growth 42C,Sa growth 42C second temp
NC(=O)COC(=O)COc1ccccc1,-19,x,116,94
CN(Cc1ccccc1)c1cc(N2CCC3(CC2)OCCO3)c2noc3c2c1C(=O)c1ccccc1-3,-44,212,103,44
CCCCNC(=O)c1cn(CC)c2ccc(S(=O)(=O)N(C)C3CCCCC3)cc2c1=O,-8,105,99,90
CCOC(=O)c1ccccc1NC(=O)Cn1c(=O)n(-c2ccc(CC)cc2)c(=O)c2c(C)c(C(=O)N(C)C)sc21,x,104,107,95
CCCC1CCC(C(=O)NC(C(=O)O)C(C)C)CC1 (stereo not drawn),x,102,93,85
O=C(Nc1ccc(N2CCCC2)cc1)c1cc2ccccc2o1,-24,101,106,90
CCn1c(=O)c(-c2noc(C(=O)NCc3cccnc3)n2)nn(-c2ccccc2)c1=O,-140,97,x,x
CCc1ccc(C(=O)c2cnc3ccc(F)cc3c2S(=O)(=O)c2ccccc2)cc1,-7,108,87,90
CCc1ccc(NC(=O)N(Cc2c[nH]c3ccccc23)C2CCCCC2)cc1,4,107,109,92
Cc1ccc(N=Cc2ccncc2)cc1,9,106,105,86
CCc1ccc(-c2nc3ccccn3c2CNCc2ccccc2F)cc1,8,102,x,x
CCN1C(=O)c2ccccc2S(=O)(=O)c2ccc(C(=O)NCc3ccccc3)cc21,-7,102,111,78
COc1ccc(C/C(C#N)=C/N2CCN(c3ccccc3F)CC2)cc1,-29,x,75,89
CC1(C)Cc2cccc(C(=O)Nc3ccc(C(F)(F)F)cc3)c2O1,-41,95,96,94
Cc1cc(C)n2nc(C(=O)NCc3ccc4c(c3)OCO4)nc2n1,-32,x,104,94
Cc1ccc(Cl)cc1NC(=O)N1CCN2CCCCC2C1 (stereo not drawn),-32,103,104,95
N#Cc1cccc(S(=O)(=O)N2CCCC2c2ccc3c(c2)OCCCO3)c1 (stereo not drawn),-9,x,82,90
CCN(CC)C(=O)C1CCC(Cn2c(=O)c3sccc3n(CC(=O)NC(C)C)c2=O)CC1 (stereo not drawn),-13,105,x,x
CCOC(=O)c1cc(-c2ccccc2)n(CCC(=O)Nc2ccccc2N2CCN(C)CC2)c1C,-14,100,88,50
COc1ccccc1/C=C1\SC(N2CCN(c3ccccc3)CC2)=NC1=O,-26,104,108,87
CS(=O)(=O)c1ccc(NC(=O)c2ccc(Br)o2)cc1,-20,x,94,97
COc1cccc(C2CC(=O)Nc3cc4c(cc32)OCCO4)c1OC (stereo not drawn),3,103,110,95
CCCN(CCC)S(=O)(=O)c1ccc(C(=O)Nc2c3c(nn2-c2ccc(C)cc2)CSC3)cc1,-20,106,x,x
CN(C(=O)Nc1ccccc1)c1c2c(nn1C)CCCC2,1,112,97,96
O=C1c2cccnc2C(=O)N1CCc1ccc(S(=O)(=O)N2CCCC2)cc1,x,98,102,93

# In a second layout: results already given
# Results follow in this order: HCMV UL50-53 inh	GIV-Gai inh	Sa growth 42C	Sa growth 42C second temp
O=C1c2cccnc2C(=O)N1CCc1ccc(S(=O)(=O)N2CCCC2)cc1
  x	98	102	93
O=C(Nc1ccc(N2CCCC2)cc1)c1cc2ccccc2o1
  -24	101	106	90
CS(=O)(=O)c1ccc(NC(=O)c2ccc(Br)o2)cc1
  -20	x	94	97
CC1(C)Cc2cccc(C(=O)Nc3ccc(C(F)(F)F)cc3)c2O1
  -41	95	96	94

# Following part.
SMILES,HCMV UL50-53 inh,GIV-Gai inh,Sa growth 42C,Sa growth 42C second temp
CC1=C(C(=O)Nc2cc(C)ccc2C)C(c2ccc(N(C)C)cc2)NC(=S)N1 (stereo not drawn),x,95,113,84
CCOCCC(=O)Nc1ccc2c(c1)OCCO2,-8,107,119,103
C=CCN1CCc2cc(O)c(O)cc2C(c2ccccc2)C1 (stereo not drawn),4&-20,99,x,x
Cc1ccccc1OCCCCn1c(CCNC(=O)C(C)(C)C)nc2ccccc21,-14,101,93,67
O=C(O)CC1=C(c2ccc(F)cc2)CCC1=O,-13,105,84,81
O=C(O)c1ccc(Oc2ccccc2)cc1,0,x,93,125
Cc1cc(C)cc(NC(=O)N2CCSc3ccccc32)c1,-25,104,89,78
Cc1ccc(C)c(NC(=O)Cn2c(=O)cc(C(=O)NCc3ccccc3)c3ccccc32)c1,-15,108,x,x
CC1CCCN(C(=O)Cc2cccc3ccccc23)C1 (stereo not drawn),-9,101,105,79
COC(=O)c1c(Oc2ccc(OC)cc2)nnc(-c2ccccc2)c1-c1ccccc1,8,108,94,100
C=CCN(CC=C)CC(O)Cn1cnc2c1c(=O)n(C)c(=O)n2C (stereo not drawn),9,99,97,93
COc1ccc(-c2nc3ccccc3o2)cc1NC(=O)c1ccc(-c2ccc(Br)cc2)o1,-17,109,91,85
COc1ccccc1CC(=O)Nc1ccc(-c2noc(COc3ccc(Cl)c(C)c3)n2)cc1,x,106&96,107,96
CC(C)CCNC(=O)c1cccc2c1-c1ccccc1C2=O,-105,105,88,89
COc1cccc(-c2cc(C(=O)NCC(C)C)on2)c1,-27,100,84,76
Cc1nn2c(nc1=O)NNC2(C)c1ccccc1 (stereo not drawn),x,97,97,98
Cc1ccccc1CNC(=O)C1CCCN(S(=O)(=O)N2CCCC(C(=O)NCc3ccccc3C)C2)C1 (stereo not drawn),-8,97,x,x
CSc1ncc(C(=O)N2CCN(c3ccccc3F)CC2)c(C)n1,-27,112,116,92
CC(=O)N1C=Cc2ccccc2C1CC(=O)O (stereo not drawn),-30,x,94,95
CC(=O)N1CCOc2ccc(S(=O)(=O)NCc3ccccc3)cc21,-21,103,91,81
O=C(c1ccc(Br)o1)N1CCN(c2ccccc2)CC1,-37,100,120,98
O=C(O)CCN=C1NC(=O)CS1,x,100,103,89
CN(Cc1ccco1)S(=O)(=O)c1nnc(NC(=O)c2cccc(Cl)c2)s1,-7,100,44,14
CC(C)CCN1C(=O)c2cc3occc3n2CC1(C)C(=O)NC1CCCC(C)C1C (stereo not drawn),-7,98,x,x
CCCCN1C(=O)CN(C2CCCCC2)C(=O)C1c1ccc(OC(C)C)c(OC)c1 (stereo not drawn),x,107,90,90

# Individual results from the results shown.
# Sa growth 42C, `COc1ccccc1CC(=O)Nc1ccc(-c2noc(COc3ccc(Cl)c(C)c3)n2)cc1` stands at 107
# GIV-Gai inh, `CC(C)CCN1C(=O)c2cc3occc3n2CC1(C)C(=O)NC1CCCC(C)C1C` (stereo not drawn) stands at 98
# GIV-Gai inh, `O=C(O)CCN=C1NC(=O)CS1` stands at 100
# HCMV UL50-53 inh, `CC1CCCN(C(=O)Cc2cccc3ccccc23)C1` (stereo not drawn) stands at -9
# Sa growth 42C second temp, `CC(=O)N1C=Cc2ccccc2C1CC(=O)O` (stereo not drawn) stands at 95

# Sorted by SMILES length (highest first): 4 of the compounds above
SMILES,HCMV UL50-53 inh,GIV-Gai inh,Sa growth 42C,Sa growth 42C second temp
Cc1ccccc1CNC(=O)C1CCCN(S(=O)(=O)N2CCCC(C(=O)NCc3ccccc3C)C2)C1 (stereo not drawn),-8,97,x,x
CCCCN1C(=O)CN(C2CCCCC2)C(=O)C1c1ccc(OC(C)C)c(OC)c1 (stereo not drawn),x,107,90,90
Cc1cc(C)cc(NC(=O)N2CCSc3ccccc32)c1,-25,104,89,78
O=C(O)CCN=C1NC(=O)CS1,x,100,103,89

# (continued)
SMILES,HCMV UL50-53 inh,GIV-Gai inh,Sa growth 42C,Sa growth 42C second temp
CCCc1c(C(=O)NCc2ccncc2)cnn1-c1ccccc1,-20,98,105,85
CCCNS(=O)(=O)c1ccc(OCC(=O)NCc2ccccn2)cc1,2,102,115,74
CC(C)(C)C(=O)Nc1cccc(C(=O)OCc2cc(=O)n3nc(C4CC4)sc3n2)c1,x,102,99,85
CCOC(=O)c1ccc(NC(=O)c2nc(S(=O)(=O)Cc3ccccc3)ncc2Cl)cc1,-20,94,100,79
Nn1cnnc1SCc1ccccc1,x,106,113,97
COC(=O)CN1C=C(C(=O)OC)C(c2ccc(O)cc2)C(C(=O)OC)=C1,x,104,81,91
O=C1CC(c2n[nH]c(=S)o2)CN1c1ccc(Cl)cc1 (stereo not drawn),-1,109,61,75
Cc1ccc2nc(-c3ccc(NC(=O)COc4ccc(Br)cc4Br)cc3)sc2c1,-26,114,103,103
CCCCOc1ccc(CNC(=O)CN2CCSc3ccccc32)cc1,x,108,89,95
COC(=O)c1c(NC(=S)NCc2ccco2)sc2c1CCC2,-7,108,106,95
Cc1nc2ncnn2c(C)c1CCC(=O)NC1=NCCS1,-8,x,105,95
Cc1cc(C(=O)N2CCOCC2)on1,-27,98,x,x
Cc1cc(OCC(=O)NCCC(C)C)nc2c1c(C)nn2C,-31,105,x,x
Cc1c(C(=O)NC2CCCCC2)sc2nc(-c3ccc(F)cc3)cn12,-27,104,89,82
CC1Cc2ccccc2N1C(=O)COc1ccc(-n2cnnn2)cc1 (stereo not drawn),14,x,98,94
CC(=O)Oc1ccc(C2Nc3ccc4ccccc4c3C3C=CCC32)c(OC(C)=O)c1 (stereo not drawn),5,108,x,x
C/C(CS(=O)(=O)c1ccc(Cl)cc1)=N\O,-13,100,85,86
Cc1ccc(C)c(NS(=O)(=O)c2c(C(=O)N3CCCC3)c(C)n(C)c2C)c1,-26,100,x,x
COc1cc(C(=O)Nc2ccc3oc(-c4cccc(C)c4)nc3c2)cc(OC)c1OC,-10,101,x,x
CCN(CC)c1c(C#N)c(SCC(=O)c2cccs2)cc2c1CCCC2,-16,x,77,86
COc1ccccc1CN1COc2cc3c(cc2C1)OCO3,-14,100,100,97
CCOC(=O)c1c(C)c(-c2ccccc2)n(CC(=O)N2CCC(Cc3ccccc3)CC2)c1C,-11,98,x,x
CCOC(=O)c1cc(NC(=O)N(C)C2CCCCC2)c(C)nc1C,-25,95,x,x
CC1CCCC(NC(=O)CSC(=O)c2ccccc2)C1C (stereo not drawn),-31,x,107,78
CCOC(=O)Cn1c(N)c(C(=O)OC)sc1=S,-8,104,106,86

# Three compounds out of the list above, sorted by the number in Sa growth 42C second temp, smallest number first.
SMILES	GIV-Gai inh	Sa growth 42C	Sa growth 42C second temp
COc1cccc(-c2cc(C(=O)NCC(C)C)on2)c1	100	84	76
CCCCOc1ccc(CNC(=O)CN2CCSc3ccccc32)cc1	108	89	95
O=C(c1ccc(Br)o1)N1CCN(c2ccccc2)CC1	100	120	98

# Additional structures.
SMILES,HCMV UL50-53 inh,GIV-Gai inh,Sa growth 42C,Sa growth 42C second temp
CCc1ccc(NC(=O)CSc2nnc3[nH]c(=O)ccn23)cc1,-40,105,95,80
Cc1ccc(C(=O)Nc2onc3c2CCCC3)cc1,-2,102,87,85
O=C(Cn1c(=O)n(Cc2ccc(F)cc2)c(=O)c2sc3ccccc3c21)NCc1ccccc1,-17,103,101,89
O=c1onc(-c2c(F)cccc2F)n1-c1cccnc1,-3,106,115,91
O=C(COC(=O)C1CC1)c1ccc(OC(F)F)cc1,-26,x,75,91
OCCSC1SC(=S)SC1SCCO (stereo not drawn),-2,x,92,84
COc1cccc(N2CCN(c3c4c(nc5nncn35)CCC4)CC2)c1,-24,102,88,81
O=C(COc1ccc2ccccc2c1CN1CCOCC1)N1CCc2ccccc21,-24,x,87,91
CCc1cccc(C)c1NC(=O)c1cccc(C(=O)Nc2c(C)cccc2CC)c1,-40,107,98,90
